CtBP-E1A inh = CtBP/E1A binding inhibition | activity change, % (no concentration beside the values) | hit rate 0.49% among 340,000 | AlphaScreen GST-E1A/His-CtBP binding, 1536-well; hits give low values; control for the full effect not named in the record; in the data active means activity change below about -65%; inconclusive means about -30% to -65%; inactive means above about -30%; also: % is scaled to controls: 0 for no effect and ±100 for the full control effect; compound concentration not given in the record
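Protein mix (5X: 125 nM each GST-E1A, His-CtBP) was incubated with pinned compound 2 h at 37 deg C in dark, in 50 mM Tris pH 8.0 buffer with 300 mM NaCl. Glutathione donor and nickel acceptor beads followed; AlphaScreen signal read after 1 h.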
gsp agonist = gsp mutant agonism | gsp mutant cells, cAMP HTRF, 30 min; control for the full effect not named in the record | Potency, µM (highest dose often 76.9 µM), for the others: at the highest dose activation (cAMP increase), hits mostly activators | hit rate 0.13% among 340,000 | AID 624287; active = well fitted activation curve with a large enough effect; inconclusive = small, poorly fitted or top-dose-only effect, or another doubt; inactive = no such curve, though single readings can be large or run the other way; cell line not stated here;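 also: phosphodiesterase inhibitor Ro 20-1724 added with compounds to block cAMP breakdown; potency is read from the fitted curve at half-maximal effect; nearly all actives have a fitted effect of over 60% in size; about a fifth of the inactives were tested at one dose only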
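Cells stably selected in G418 were plated at 2000/well, grown 16-24 hr, then given compounds in DMSO with the PDE inhibitor […] (300 uM solution added) for 30 min at 37C; cAMP was read by HTRF.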
D2 agonist = agonists of human D2 dopamine receptor (beta-arrestin); DiscoveRx PathHunter D2 beta-arrestin, luminescence, 90 min; 100% = 57 uM dopamine signal; activation, % (test concentration not listed); AID 624465; hit rate 0.084% among 360,000; in the data active = activation above about 40%; inconclusive = about 15% to 40%; inactive = below about 15%; also: compound concentration not given in the record; the text of the record calls up to 30% inactive
Target sequence (P14416 whole entry, looked up): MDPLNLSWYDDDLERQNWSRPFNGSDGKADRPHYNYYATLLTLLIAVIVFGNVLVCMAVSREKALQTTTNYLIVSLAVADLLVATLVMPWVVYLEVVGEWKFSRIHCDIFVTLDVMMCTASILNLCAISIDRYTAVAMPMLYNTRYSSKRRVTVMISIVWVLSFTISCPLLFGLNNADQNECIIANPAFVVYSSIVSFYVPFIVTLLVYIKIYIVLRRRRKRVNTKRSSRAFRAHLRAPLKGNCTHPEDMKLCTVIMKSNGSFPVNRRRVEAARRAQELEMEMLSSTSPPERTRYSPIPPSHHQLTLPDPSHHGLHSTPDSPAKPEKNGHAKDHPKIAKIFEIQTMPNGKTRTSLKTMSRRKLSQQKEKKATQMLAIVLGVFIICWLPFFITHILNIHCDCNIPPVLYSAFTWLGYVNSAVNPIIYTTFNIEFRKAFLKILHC
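DiscoveRx PathHunter D2 beta-arrestin cells (2,100/well) attached overnight, then compound-stimulated 90 min at 37 C in HBSS/10 mM HEPES/0.1% Tween-20 buffer; beta-galactosidase complementation read by luminescence after 1 h at ambient temperature. Dopamine 57 uM final (EC100) as control.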
gsp antag = antagonizes gsp, the McCune-Albright syndrome mutation. hit rate 0.4% among 340,000. gsp-mutant cells, cAMP HTRF, 30 min; control for the full effect not named in the record. Potency, µM (top dose mostly 76.9 µM), for inactives: top-dose activity change, negative = inhibition, most hits filed as inhibitors; active = falling curve of any shape with a large fitted effect; inconclusive = falling curve, mostly with a smaller effect; inactive = flat or rising curve; cell line not stated here;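 also: intracellular cAMP measured with PDE inhibitor Ro 20-1724 present during compound exposure; potency is read from the fitted curve at half-maximal effect; % is scaled to controls: 0 for no effect and ±100 for the full control effect; nearly all actives have a fitted effect of over 65% in size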
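G418-selected cells were plated in DMEM/10% FBS for 16-24 h at 37C, then treated with compounds plus the PDE inhibitor […] (300 uM solution added) for 30 min at 37C. Intracellular cAMP was measured by HTRF after 30 min lysis at room temperature.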
Six1-Eya2 inh = blocks human Six1 binding to Eya2; Q15475+O00167; AlphaScreen GST-Six1/His-Eya2 binding, biochemical; hits give low values; control for the full effect not named in the record; activity change, % (concentration not given with the values); hit rate 0.56% among 360,000; AID 651725; in the data active = activity change below about -65%; inconclusive = about -30% to -65%; inactive = above about -30%; also: % is scaled to controls: 0 for no effect and ±100 for the full control effect
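AlphaScreen luminescence read after one hour at 37 °C in darkness. Pin-transferred compounds met GST-Six1 and His-Eya2 protein (5X stock 250 nM/500 nM) plus glutathione donor and Ni-chelate acceptor beads (5X, 50 ug/mL).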
D2 PAM = positive allosteric modulators of human D2 dopamine receptor; P14416; DiscoveRx D2 beta-arrestin cells, luminescence, 90 min; 100% = 57 uM dopamine signal; potentiation, % (test concentration not listed); hit rate 0.23% among 360,000; active = potentiation of 50% or more; inconclusive = 30% to 50%; inactive = 30% or less;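 also: compound concentration not given in the record; tested on top of an EC20 dose of dopamine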
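PathHunter beta-arrestin assay in DiscoveRx D2 cells. Compounds were added with an EC20 of dopamine (50 nM final) for 90 min at 37 deg C. Luminescence was read 1 h after detection reagent, with 57 uM dopamine as the EC100 control.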
* marks the source's active call; other numbers are inactive results; ? = inconclusive; · = not tested or not shown; [ ] = dose if it differs, or a comment. No enrichment for hits (roughly 1.4% active in at least one column).

SMILES	CtBP-E1A inh	gsp agonist	D2 agonist	gsp antag	Six1-Eya2 inh	D2 PAM
COc1ccc2c(c1)[C@H]1[C@H](CO2)[C@H](c2ccccc2)[C@]2(C)C(=O)Nc3ccc(Br)cc3C(=O)N12	?	?	-1.5	-16%	13	-13
Cc1ccc(CSCC(=O)N2CCN(Cc3ccc4c(c3)OCO4)CC2)cc1	11	-58%[inhibitor]	1.8	17%	-6	-11
COC(=O)c1ccccc1NC(=O)CSc1nc2cccnc2n1C	·	-9%	-4.9	4%	1	-58
O=C(Cc1ccc(F)cc1)NC(Cc1c[nH]c2ccccc12)C(=O)O (configuration not stated)	7	0%[15.4 µM]	-0.9	10%	0	2
CC1CCCN(C(=O)CCS(=O)(=O)c2cc3c(cc2Cl)NC(=O)CO3)C1 (configuration not stated)	-8	-2%	-0.5	4%	0	-5
CN1c2ccccc2N(C)C1c1c(O)ccc2ccccc12	1	?	-1.1	11%	2	-12
CCN(c1ccccc1)S(=O)(=O)c1ccc(Cl)c(NC(=O)CN(C)Cc2cccc(F)c2)c1	8	2%	-0.2	-4%	-3	-13
CCn1c(=O)n(CC)c2cc(S(=O)(=O)NCCOc3ccccc3)c(C)cc21	4	-12%	-0.6	-16%	2	-11
O=C(CSc1ncnc2c1cnn2-c1ccc(F)cc1)NCc1ccc2c(c1)OCO2	-6	14%[15.4 µM]	-2.6	14%	9	-1
CC(C)(C)C(=O)Nc1cc(NC(=O)C(C)(C)C)cc(C(=O)Nc2cc(C(=O)O)cc(C(=O)O)c2)c1	-18	5%[15.4 µM]	-6.6	3%	4	-8
CC(=O)OC(C(=O)NCS(=O)(=O)c1ccc(C)cc1)c1cccnc1 (configuration not stated)	9	9%	-1.5	19%	28	-18
COc1ccccc1CNc1nc(-c2ccccc2CO)c2sccc2n1	-3	·	-4.0	·	-8	1
CCOC(=O)C1CN(S(=O)(=O)c2ccc(F)cc2)C1	-7	-55%[inhibitor]	-0.3	-3%	2	7
COc1ccc(NC(=O)c2cncn2-c2ccccc2)cc1	5	-18%	-1.4	5%	-4	0
Cc1noc(N)c1C1(O)C(=O)Nc2c(Cl)cc(Cl)cc21 (configuration not stated)	-16	?	-0.7	-6%	2	3
CN1CCN(C(c2ccc(F)cc2)c2ccc3cccnc3c2O)CC1 (configuration not stated)	·	-25%	-1.2	-9%	-6	-4
CCOC(=O)C1=C(c2ccccc2)Nc2ncnn2C1c1ccc(OC)c(OC)c1OC (configuration not stated)	24	?	-0.2	-2%	1	-10
CC(=O)c1cccc(Nc2c3c(nc4ccccc24)CCC3)c1	4	11%	4.4	16%	5	-7
Cc1ccc2c(c1)nnn2C1CCN(CC(=O)Nc2ccc(F)cc2)CC1	3	11%[15.4 µM]	-3.9	-18%	-4	-6
Cn1c(=O)c2c(nc(SCC(=O)O)n2Cc2cc3c(cc2Cl)OCO3)n(C)c1=O	-7	36%	2.0	-5%	4	-11
CCOC(=O)CN(C(=O)CSc1nnc(-c2ccc(OC)c(OC)c2)o1)c1ccccc1	2	-20%	0.2	-9%	6	6
O=C(NC1CCN(S(=O)(=O)c2ccccc2)CC1)c1cccc(F)c1	7	10%[15.4 µM]	0.3	8%	7	-9
COc1ccc(NC(=O)CSc2nnc(-c3ccco3)n2C)cc1	8	-73%[inhibitor]	0.6	0%	8	2
Cc1[nH]nc(SCC(=O)N2CCCCCC2)c1[N+](=O)[O-]	1	4%[15.4 µM]	-2.1	-13%	-1	-9
COc1ccc(C2COc3cc(O)ccc3C2)c(OC)c1O (configuration not stated)	-8	·	7.2	0%	-10	25
CC1CN(C(=S)Nc2ccc(S(N)(=O)=O)cc2)CC(C)O1 (configuration not stated)	-12	?	-3.7	-3%	-6	-28
COc1ccccc1NS(=O)(=O)c1ccc(O)c(C(=O)OCC(=O)N2c3ccccc3CC2C)c1 (configuration not stated)	·	-42%[inhibitor]	-1.9	-2%	4	-20
CCN(CC(=O)NC1CCS(=O)(=O)C1)S(=O)(=O)c1ccccc1 (configuration not stated)	-2	6%	-4.2	12%	10	-16
Cc1cc(C)n(-c2cc(C(C)(C)C)nc3c(-c4ccc(Cl)cc4)cnn23)n1	25	-49%[inhibitor]	-4.9	-6%	17	-16
CCn1c2ccccc2nc2cc3c(cc21)c(Cl)c(=O)c1ccccc13	0	-23%	6.2	·	-16	8
COc1ccccc1CNC(=O)C(=O)NCC1OCCN1S(=O)(=O)c1ccccc1 (configuration not stated)	8	-50%[inhibitor]	-2.1	-8%	-1	-15
COC(C(=O)Nc1ccc(NC(=O)C(OC)c2ccccc2)cc1)c1ccccc1 (configuration not stated)	0	-18%	-2.7	13%	27	-2
O=C(COc1ccccc1)N(Cc1ccccc1)c1nc(-c2ccccc2)cs1	2	7%	-2.9	5%	-1	0
CC(C)(C)NC(=O)C(c1ccco1)N(Cc1ccc2c(c1)OCO2)C(=O)c1snc(C(N)=O)c1N (configuration not stated)	-1	-7%	1.0	13%	0	-11
NNC(=O)CCc1ccc(S(=O)(=O)N2CCOCC2)cc1	·	-42%[inhibitor]	-3.3	13%	22	-8
C=C1c2ccccc2S(=O)(=O)N(Cc2ccccc2)C1COCc1ccccc1 (configuration not stated)	10	·	-1.4	1%	8	-7
CCN(C(=O)CN1C(=O)S/C(=C\C=C\c2ccccc2)C1=O)C1CCS(=O)(=O)C1 (configuration not stated)	·	-4%	-0.9	4%	-8	-4
Cc1cccc(CCNC(=O)Cn2ncc3c([nH]c4ccc(C)cc43)c2=O)c1	·	?	-4.3	-1%	6	-6
CCOc1ccc(NC(=O)C(=O)N/N=C\c2ccc(CNS(=O)(=O)c3ccccc3)o2)cc1	-14	0%	-1.7	5%	-1	-2
COc1ccc(Cl)cc1NC(=O)Nn1cnnc1	0	-17%	-5.8	1%	2	-19
CCOC(=O)c1[nH]c(C)c(C(=O)OCC(=O)N2CC(=O)Nc3ccccc32)c1C	-2	-9%[15.4 µM]	1.5	-2%	-23	-4
CCC(CO)Oc1cc(NCc2cccc(F)c2)c2ncn(C(C)C)c2c1 (configuration not stated)	-24	·	4.0	-3%	-5	-34
CCS(=O)(=O)C(=C(Nc1ccc(OC)cc1)Nc1ccc(OC)cc1)S(=O)(=O)CC	2	-1%	0.5	-9%	0	-7
O=C(CCNS(=O)(=O)c1ccccc1C(F)(F)F)NCCCSc1ccccc1	22	0%	-2.9	-5%	-15	-9
Cc1ccc(OCCn2ccnc2)c(C)c1	6	19%	-3.2	14%	0	-5
CCCn1c(SCC(=O)NNC(=O)c2ccccc2)nnc1-c1cccnc1	·	14%	-2.9	6%	-2	-16
NC(=O)C1CCN(C(=O)CSc2ccccn2)CC1	12	4%	0.3	9%	11	2
CCC(C)c1ccc2oc(-c3ccc(NC(=O)c4ncn[nH]4)cc3)nc2c1 (configuration not stated)	?	-18%	-0.6	-18%	?	6
Cc1nc2cc(NC(=O)C3(C)CCCN(C(C)C)C3)ccc2o1 (configuration not stated)	5	·	-4.5	·	3	-8
CCOC(=O)c1sc(N/N=C/c2ccccc2)nc1C	2	-10%[15.4 µM]	-8.4	-7%	-3	-5
CCN(CC)c1ccc(S(=O)(=O)N2CCOCC2)cc1NC(=O)COC(=O)c1cccnc1SC	10	18%[15.4 µM]	-1.8	25%	-6	-68
c1ccc2c(c1)nnn2-c1ccncc1	-12	-40%[inhibitor]	-6.5	·	-6	-12
Cc1ccc(C(=O)COC(=O)c2ccco2)cc1C	17	-32%[inhibitor]	5.4	9%	8	1
C[C@@H]1CC=C[C@H]2[C@H]1C(=O)N(Cc1ccccc1)[C@H]2c1ccc(-c2ccc(N(C)C)cc2)cc1F	?	·	-0.9	1%	?	-11
CC(=O)Nc1ccc(C(=O)OCC(=O)NC(=O)NC2CCCCC2)cc1	4	-6%	0.1	-22%	1	5
CC(=O)c1cccc(OCC(=O)Nc2cccc(C(=O)Nc3c(C)n(C)n(-c4ccccc4)c3=O)c2)c1	7	-15%	-5.2	4%	-12	9
COc1ccc(NS(=O)(=O)c2cccc3cccnc23)cc1Cl	?	0%	-1.6	1%	-19	-1
Cc1ccc2c(c1)N(CC(=O)N1CCCCC1C)C(=O)CO2 (configuration not stated)	6	21%[15.4 µM]	-6.6	2%	7	-4
Cc1ccc(CN2C(=O)CCC2C(=O)NCCCN2CCOCC2)cc1 (configuration not stated)	16	30%	-2.9	6%	4	-7
COc1cccc(CNC(=O)CN2C(=O)CSc3ccc(S(=O)(=O)N4CCCC4)cc32)c1	8	?	-17	-9%	-6	3

Ordered by the number under CtBP-E1A inh (lowest first): three of the compounds above
SMILES	CtBP-E1A inh	gsp agonist	D2 agonist	gsp antag	Six1-Eya2 inh	D2 PAM
Cc1ccc2c(c1)N(CC(=O)N1CCCCC1C)C(=O)CO2 (configuration not stated)	6	21%[15.4 µM]	-6.6	2%	7	-4
CCN(CC)c1ccc(S(=O)(=O)N2CCOCC2)cc1NC(=O)COC(=O)c1cccnc1SC	10	18%[15.4 µM]	-1.8	25%	-6	-68
Cc1ccc(C(=O)COC(=O)c2ccco2)cc1C	17	-32%[inhibitor]	5.4	9%	8	1

More records follow:
SMILES	CtBP-E1A inh	gsp agonist	D2 agonist	gsp antag	Six1-Eya2 inh	D2 PAM
Nc1scc[n+]1Cc1cccc2cccnc12	7	?	-1.1	7%	0	-1
CCOc1ccc(NC(=O)CCCn2c(=S)[nH]c3ccsc3c2=O)cc1	-1	-7%[15.4 µM]	-2.0	-62%	3	-13
CN1CCN(C(=S)Nc2ccc(Cl)cc2Cl)CC1	0	-10%	-2.4	8%	8	-11
Cc1ccc(-n2ncc3c(=O)[nH]c(SCC(=O)N4CCC(C)CC4)nc32)cc1C	-25	-4%	-4.0	3%	9	-3
CCn1cc(C(=O)O)c(=O)c2cnc(N3CCN(C(=S)NC(=O)c4ccc(Cl)cc4Cl)CC3)nc21	6	25%	4.9	?	7	-6
CCN1CCN(C(c2ccc(C(F)(F)F)cc2)c2ccc3cccnc3c2O)CC1 (configuration not stated)	-1	11%[15.4 µM]	-2.9	10%	-86*	-22
CCn1c(=O)cc(SCC(=O)N2CCN(C)CC2)c2ccccc21	-5	?	-1.8	-15%	1	-7
CCc1cccc(NC(=O)c2ccc(Br)o2)c1	3	-18%	-3.5	-24%	-2	-12
O=c1[nH]c(=S)[nH]c2c1C(c1cc([N+](=O)[O-])c(N3CCOCC3)cc1N1CCOCC1)O2 (configuration not stated)	-14	0%[15.4 µM]	-0.5	·	17	-25
Cc1nnsc1C(=O)N1CCN(c2cc(C(F)(F)F)ccn2)CC1	·	3%	-6.7	1%	3	-17
O=C(NCCC(=O)N1CCN(c2ccccn2)CC1)c1ccc([N+](=O)[O-])cc1	5	1%	5.0	-2%	3	3

Entries listed above shown as hits in Six1-Eya2 inh:
SMILES	CtBP-E1A inh	gsp agonist	D2 agonist	gsp antag	Six1-Eya2 inh	D2 PAM
CCN1CCN(C(c2ccc(C(F)(F)F)cc2)c2ccc3cccnc3c2O)CC1 (configuration not stated)	-1	11%[15.4 µM]	-2.9	10%	-86*	-22
